Ecoli rRNA inh = reduced GFP signal of wild-type E. coli, primary screen, bacterial rRNA inhibitor project, GFP/RFP fluorescence, OD600, single point | GFP signal change (wild-type ribosome), % (concentration not given with the values) | hit rate 1.6% among 350,000 | E. coli WT GFP vs humanized-ribosome RFP mutants, 24 h; hits give low values; DMSO median 0, no signal -100;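 active = significant combined selectivity score with lowered wild-type GFP, culture density cut under 30%, mutant RFP and density less affected; inactive = any of these conditions unmet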; note: one replicate is shown; some compounds called inactive have numbers as strong as hits
Calb FLC = C. albicans growth inhibition with fluconazole, primary screen, CaCi-2 strain, Alamar Blue fluorescence. hit rate 0.57% among 300,000. AID 1979, 2009. growth inhibition, % (concentration not given with the values). C. albicans CaCi-2 (fluconazole-resistant clinical isolate) + fluconazole, 48 h;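 active = most replicates above 75%; inconclusive = exactly half above 75%; inactive = most below 75%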;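 note: all wells also contain fluconazole at 8 µg/ml as a sub-toxic cotreatment; 0% = median of DMSO wells and 100% = median of geldanamycin control wells; wells of about 8 µL received 7.5 nL stock; the first replicate is given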
Bfl-1 A1 inh = caspase 3/7 activation in MEF A1-2A-BIM cells, primary screen, A1 inhibitor project, cell-based, luminescence, HTS. AID 2462, 2010. Caspase-Glo 3/7 luminescence, 3 h; percent of clofoctol response, vehicle zero. caspase activation, % (concentration not given with the values). hit rate 0.066% among 330,000;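 active = over half of replicate activation scores above 10%, or exactly half above 10 with the replicate mean above 10; inconclusive = replicate mean below 10 yet half the replicates above 10; inactive = over half of replicates below 10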;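 note: wells of about 30 µL received 50 nL stock; many hits fall short of the cut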
LANA-H2A inh = blockers of LANA interaction with H2A/H2B – biochemical, FP readout, HTS, primary screen. cell-free LANA-H2A/H2B peptide, fluorescence polarization. inhibition, % (concentration not given with the values). hit rate 0.6% among 320,000. AID 2629, 2010; in the data active = inhibition mostly above about 10%, no sharp cut-off; inactive = mostly below about 6.7%;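 note: stock transfer was 7.5 nL into about 10 µL; 0% = median of vehicle wells and 100% = median of positive control wells; one replicate is shown; the record names a cut of 25% in any replicate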
Target sequence (Q9QR71 whole entry, looked up): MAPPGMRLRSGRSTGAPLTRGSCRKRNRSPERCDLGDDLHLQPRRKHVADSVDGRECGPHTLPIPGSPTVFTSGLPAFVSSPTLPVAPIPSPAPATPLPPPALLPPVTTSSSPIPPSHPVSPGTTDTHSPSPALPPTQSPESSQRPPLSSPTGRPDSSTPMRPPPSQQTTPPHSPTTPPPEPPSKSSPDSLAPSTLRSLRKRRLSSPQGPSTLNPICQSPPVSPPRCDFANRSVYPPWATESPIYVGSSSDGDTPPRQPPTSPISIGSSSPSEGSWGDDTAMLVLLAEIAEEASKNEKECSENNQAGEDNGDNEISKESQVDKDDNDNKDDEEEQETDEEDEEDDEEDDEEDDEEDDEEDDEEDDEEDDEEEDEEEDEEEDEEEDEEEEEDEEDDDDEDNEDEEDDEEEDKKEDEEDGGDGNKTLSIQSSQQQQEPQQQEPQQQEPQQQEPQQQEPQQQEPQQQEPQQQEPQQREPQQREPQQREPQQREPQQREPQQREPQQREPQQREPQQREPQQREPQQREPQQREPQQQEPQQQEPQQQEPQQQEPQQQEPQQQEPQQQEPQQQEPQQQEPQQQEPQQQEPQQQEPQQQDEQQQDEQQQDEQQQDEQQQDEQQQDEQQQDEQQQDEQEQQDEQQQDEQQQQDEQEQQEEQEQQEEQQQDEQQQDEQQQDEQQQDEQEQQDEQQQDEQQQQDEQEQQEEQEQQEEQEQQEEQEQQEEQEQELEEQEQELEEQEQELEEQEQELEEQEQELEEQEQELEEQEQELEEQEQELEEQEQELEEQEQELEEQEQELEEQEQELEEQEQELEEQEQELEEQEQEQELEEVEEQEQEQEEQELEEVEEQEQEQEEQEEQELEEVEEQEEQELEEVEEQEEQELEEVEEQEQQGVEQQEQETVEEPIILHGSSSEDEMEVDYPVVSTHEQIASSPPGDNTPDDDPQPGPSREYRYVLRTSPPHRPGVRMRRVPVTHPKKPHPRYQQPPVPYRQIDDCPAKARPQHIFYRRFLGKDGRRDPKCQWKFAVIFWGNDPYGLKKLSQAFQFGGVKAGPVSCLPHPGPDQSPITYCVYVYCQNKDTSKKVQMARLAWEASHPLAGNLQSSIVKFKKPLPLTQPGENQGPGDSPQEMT
T cruzi repl = inhibitors of intracellular T. cruzi growth, primary screen, luminescence, NIH3T3 host cells; hit rate 1.4% among 300,000; AID 1885, 2009; T. cruzi beta-gal in NIH3T3, 90 h; inhibition, % (no concentration beside the values);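 active = mean inhibition across valid replicates above about 55%, limit read from the data; inconclusive = mean below that limit but half or more replicates reach it; inactive = mean below it, under half of replicates reach it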;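 note: signal also drops with host cell toxicity which is not excluded here; 0% = plate median of DMSO wells and 100% = zero luminescence signal; higher percent means less beta-gal luminescence so fewer parasites; stock transfer was 50 nL into about 50 µL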
Beta2AR agonist = beta2AR agonists driving receptor internalization, primary screen, cell-based, FAP fluorogen, flow cytometry. hit rate 0.43% among 340,000. response, % (concentration not given with the values). Am2.2-beta2AR cells; reference of the scale not given here;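 active = response above a set limit, near 3 SD of response in nonfluorescent compounds, cut at about 42% in these data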;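 note: stock transfer was 100 nL into about 11 µL; a reference agonist was the positive control; negative values mostly stem from fluorescent compounds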
ALR inh = inhibitors of human ALR sulfhydryl oxidase, primary screen, biochemical, H2O2 detection, HRP-luminol luminescence, single point; purified ALR, DTT oxidation; hit rate 3.8% among 290,000; FAD-linked sulfhydryl oxidase ALR (Homo sapiens), P55789; inhibition, % (concentration not given with the values);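 active = mean and each replicate at 75% or more; inconclusive = only one of the two met; inactive = neither met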;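 note: stock transfer was 7.5 nL into about 7.5 µL; 0% = neutral wells and 100% = wells with inactivated enzyme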
Beta cell apopt = inhibitors of cytokine-induced beta cell apoptosis, primary screen, luminescence. INS-1E cytokine-induced death, ATP luminescence, 48 h; percent of positive-control rescue, neutral wells zero. hit rate 0.8% among 300,000. AID 435005, 2010. protection from apoptosis, % (concentration not given with the values);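 active = all replicates at 75% or more, or half of them and the mean; inconclusive = half reach 75% but not the mean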;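 note: 0% = cytokine-treated negative control wells and 100% = positive control rescue; higher means more ATP so stronger rescue from cytokine killing; wells of about 40 µL received 100 nL stock; the first replicate is given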
Ecoli rRNA inh OD600 = recorded beside Ecoli rRNA inh, whose call it bears; OD600 change, %; measured here: OD600 growth;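 optical density of the mix in the first replicate; 0 = DMSO median and -100 = no signal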
Ecoli rRNA inh RFP = further read-out of Ecoli rRNA inh, marked with its call; RFP signal change, %; measured here: RFP humanized mutant strains;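 first replicate; 0 = DMSO median and -100 = no signal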
Numbers without * were called inactive; ? = inconclusive; · = not tested or not shown. The list is partial; rates above refer to the full screens.

SMILES	Ecoli rRNA inh	Ecoli rRNA inh OD600	Ecoli rRNA inh RFP	Calb FLC	Bfl-1 A1 inh	LANA-H2A inh	T cruzi repl	Beta2AR agonist	ALR inh	Beta cell apopt
O=C1CN(C(=O)c2c(F)cccc2F)C(c2ccccc2)c2cc(Br)ccc2N1 (stereo not drawn)	-27	-34	-10	-3	-0.1	7.2	15	1	-3	3
COCCNC(=O)C(c1ccc(C)o1)N(Cc1ccc(OC)cc1)C(=O)Cn1nnc2ccccc21 (stereo not drawn)	·	·	·	-1	0.0	2.8	-3	-6	-6	-7
O=C(NCC1CCCO1)C1CCCN(S(=O)(=O)c2ccc(Cl)cc2)C1 (stereo not drawn)	5	-1	-1.2	0	0.1	2.9	-15	-4	-3	-7
O=C(NC(=S)Nc1ccc(CN2CCOCC2)cc1)c1ccc2c(c1)OCCO2	-16	-13	4.2	6	-0.7	-3.3	1	-9	·	-1
CN(CC(=O)N1CCCC1)S(=O)(=O)c1cccc(Cl)c1	-2	2	-2.3	2	0.2	1.1	-8	-4	-1	-8
CCOC(=O)N1CCN(C(=O)Cc2ccc(-n3c(=O)[nH]c4ccccc4c3=O)cc2)CC1	·	·	·	14	-0.2	1.4	1	-14	·	-1
Cn1c(-c2cccc(F)c2)nc2c1c(=O)[nH]c(=O)n2Cc1ccccc1	-4	13	-3.4	-1	0.0	3.9	-4	1	1	-1
O=C(COC(=O)c1ccc[nH]c1=O)c1ccc(Cl)s1	·	·	·	2	0.5	-2.1	-2	0	-11	3
COC(=O)c1ccccc1NC(=S)NC(=O)c1cccc2ccccc12	·	·	·	-1	-1.0	-2.1	-20	14	2	-3
COc1ccc2nc(SCc3nc(N)nc(Nc4ccccc4)n3)[nH]c2c1	·	·	·	0	-0.2	5.8	8	3	7	-5
CS(=O)(=O)N1CCN(c2ccccc2NC(=O)c2ccc(-c3ccc(Br)cc3)o2)CC1	·	·	·	13	0.0	-2.0	46	-50	·	21
CCC(C)C(=O)Nc1c2c(nc3c1CCC3)CCCC2 (stereo not drawn)	·	·	·	-5	0.1	11	-12	0	-5	-6
Cc1ccc(C2N(C)c3ccccc3-c3nc4ccccc4n32)o1 (stereo not drawn)	·	·	·	23	·	7.7	-10	-3	49	-3
COc1ccc(CC(=O)Nc2ccc(-c3noc(-c4cccc(OC)c4)n3)cc2)cc1	·	·	·	11	-0.2	-1.5	-17	2	7	7
CC(C)C(=O)Nc1cc(S(=O)(=O)Nc2cccc(Cl)c2)ccc1Cl	-22*	-18*	-1.1*	5	-0.2	4.8	-11	3	-14	-4
CN(C)S(=O)(=O)c1cccc(NC(=S)NC(=O)C2CCCCC2)c1	-10	-16	2.1	14	0.6	-3.4	8	6	19	-15
c1coc(-c2nn3c(Cn4nnc5ccccc54)nnc3s2)c1	·	·	·	-5	-0.8	1.9	-7	-8	·	2
COc1cc(OC)c(NS(=O)(=O)c2cc(Br)cnc2N)cc1Cl	-41	-61	-6.6	-4	1.7	-2.3	-2	3	4	-4
Nc1nc(CSC(=S)N2CCN(c3ccccc3)CC2)nc(Nc2ccccc2)n1	·	·	·	4	0.4	1.0	18	-10	-3	-12
CCC(C)(C)C(=O)Nc1ccc(OC)cc1[N+](=O)[O-]	-3	0	-0.8	2	-1.1	-13	7	-7	·	-5
Cc1ccc(S(=O)(=O)N2CCOCC2)cc1NC(=O)CN(C)C1CCS(=O)(=O)C1 (stereo not drawn)	7	14	5.2	-2	-0.4	-0.9	-12	2	·	-1
Cc1ccc(C)c(OCc2cc(C(=O)N(C)Cc3nccs3)no2)c1	-5	-21	2.7	14	0.7	-2.1	0	10	-2	-5
CC1CCN(c2ccccc2NC(=S)NC(=O)c2ccc(-c3cccc([N+](=O)[O-])c3)o2)CC1	·	·	·	-10	0.4	11	1	-1	-3	1
COc1cc(/C=C(\C#N)c2nc(-c3cc4ccccc4oc3=O)cs2)ccc1O	9	-2	-9.6	-6	1.1	-2.1	6	-93	·	17
CC(=O)Nc1cccc(S(N)(=O)=O)c1C	9	6	4.9	-10	0.1	-6.8	-4	13	0	-6
SMILES	Ecoli rRNA inh	Ecoli rRNA inh OD600	Ecoli rRNA inh RFP	Calb FLC	Bfl-1 A1 inh	LANA-H2A inh	T cruzi repl	Beta2AR agonist	ALR inh	Beta cell apopt
CCn1c(COc2cccc3cccnc23)nnc1SCC(=O)O	16	5	0.5	-6	0.3	-0.3	-13	6	-6	-4
Cc1ccc(NC(=O)c2cccc(N3C(=O)CCC3=O)c2)nc1	·	·	·	-28	-0.3	-0.3	-15	-7	-2	-10
CC(NC(=O)COC(=O)CNS(=O)(=O)/C=C/c1ccccc1)c1ccccc1 (stereo not drawn)	2	-1	0.4	·	1.3	4.3	·	12	·	-7
O=C(O)c1ccc(/C=C(\c2nc3ccccc3[nH]2)c2nc3ccccc3s2)cc1	-11	-22	10	5	-0.7	-14	-5	-1	6	-1
Cc1cc(C)nc(NS(=O)(=O)c2ccc(NC(=O)C3CC3)cc2)n1	7	6	-0.9	2	0.0	-1.4	-9	9	·	-5
CCC1(c2ccccc2)NC(=O)N(CC(=O)Nc2cccc(S(=O)(=O)N3CCCC3)c2)C1=O (stereo not drawn)	-6	-8	-0.3	·	0.6	-0.9	·	-1	1	-5
COc1ccc(-c2cc(C(=O)N3CCOCC3)no2)cc1OC	·	·	·	-4	0.5	0.7	6	6	-5	1
CCC(=O)c1ccccc1OCCN1CCN(Cc2ccccc2)CC1	22	9	5.2	-2	0.1	-1.0	22	-1	7	0
CCOC(=O)NC(=O)CSc1nnnn1-c1ccc(C)cc1	·	·	·	?	-0.7	-0.2	-4	4	·	-5
Cc1cccc(NC(=S)N2CCC(c3nc4ccccc4o3)CC2)c1	-22	-37	-2.2	2	-0.9	1.2	-8	-11	·	-9
Cc1cccc(OCC(=O)N/N=C/CC(C)c2ccccc2)c1C (stereo not drawn)	1	-16	-1.6	9	0.4	·	-8	10	·	-7
COC(=O)c1cccc(Oc2nc3c(c(=O)n(C)c(=O)n3C)n2C(C)C)c1	15	8	-1.2	7	-0.3	-7.1	2	9	4	·
O=C1CN(CC(=O)Nc2ccc(SC(F)F)cc2)CCN1	-7	2	1.7	4	-0.5	-1.1	8	-1	-64	0
CCOC(=O)CSc1nc2c(c(=O)[nH]1)C(C)(CC)Cc1ccccc1-2 (stereo not drawn)	-44	-78	-16	13	0.0	2.2	-13	0	·	?
C[C@@H]1NC(=O)OC1c1ccco1 (stereo partly drawn)	9	2	6.9	·	-1.5	-0.7	·	-6	-2	-5
COc1ccccc1/C=C1/C(=O)N(c2ccccc2)N=C1C	22	3	-0.3	-5	0.0	2.1	-1	14	-84	2
CCCCN(CC)CCNC(=O)c1cn(CCOC)c(=O)c2c1c1ccccc1n2C	10	3	-3.0	-9	-0.5	3.3	33	6	-25	-4
Cc1cccc(OCCn2c(=S)[nH]c3ccccc32)c1	·	·	·	-45	-0.6	-13	7	-11	13	1
CC(C)CCNC(=O)c1ccc2c(c1)ncn2C1CCCC1	-14	-12	15	17	0.8	-1.0	-12	2	-3	-1
COc1ccc2nc(N3CCN(C(=O)C4COc5ccccc5O4)CC3)sc2c1 (stereo not drawn)	-10	-23	1.6	3	-1.1	3.6	-3	3	-26	0
C=C(C)COc1ccc2c(CC)cc(=O)oc2c1	-10	-3	-5.8	1	-0.4	0.9	4	1	-9	-6
COC(=O)c1ccc(NC2=CC(=O)CC(C)(C)C2)cc1	·	·	·	0	1.9	3.0	1	-4	-1	-4
COC(=O)CN(c1ccc(OC)cc1)S(=O)(=O)c1c(C)noc1C	·	·	·	0	0.4	-4.9	-1	14	3	-2
COc1cccc(NC(=O)CSc2nnc(-c3ccoc3C)n2-c2ccccc2)c1	·	·	·	8	-1.5	0.0	9	·	1	·
O=C1CSC2(CCCCC2)N1CCO	·	·	·	3	-0.5	-1.6	-16	-8	-9	0
SMILES	Ecoli rRNA inh	Ecoli rRNA inh OD600	Ecoli rRNA inh RFP	Calb FLC	Bfl-1 A1 inh	LANA-H2A inh	T cruzi repl	Beta2AR agonist	ALR inh	Beta cell apopt
CCOP(=O)(OCC)C(NC(=O)Nc1cccc(Cl)c1)C(N)=O (stereo not drawn)	9	6	-0.9	-8	0.8	-1.5	-3	3	-5	-2
Cc1nnc(SCCC(=O)Nc2ccc(Cl)cc2)o1	-1	11	-7.7	-5	-0.3	4.8	0	9	3	3
COc1ccc(C(CC(=O)N2CCN(c3ccccc3)CC2)c2c(OC)cc(OC)c3ccc(=O)oc23)cc1 (stereo not drawn)	-3	-2	-1.2	17	2.0	3.9	-4	-3	0	4
CC1CCN(C(=O)C(NS(=O)(=O)c2cccc3nsnc23)c2ccccc2)CC1 (stereo not drawn)	·	·	·	5	-0.1	-5.6	7	2	-13	3
Cc1ccc(S(=O)(=O)N2CCN(Cc3ccccc3)CC2)s1	-3	-13	0.2	·	0.0	4.1	·	-8	-3	-2
CCOc1cc(CNCc2ccccc2)ccc1OCc1ccc(Cl)cc1	-57	-80	-29	-31	2.0	-5.3	55*	15	-5	41
COc1ccc(/C=N/N=C/c2ccc(OC)cc2)cc1	8	18	-3.5	8	-3.6	2.2	-24	-3	-3	-13
CCCC(=O)Nc1ccccc1Sc1ncnc2scc(-c3ccccc3)c12	·	·	·	7	-0.3	0.2	9	-8	-1	-13
CCOC(=O)Cn1cc(Cl)c(=O)c(Cl)c1	·	·	·	-5	0.1	-0.8	-16	-5	-9	-3
Cc1csc(/N=C/N(C)C)c1C#N	5	7	3.7	-3	-0.8	-4.5	0	0	-7	-3
COc1ccc(C(=O)c2cc3ccc(O)cc3oc2=O)cc1	-18*	-2.3*	3.5*	2	-7.1	-0.9	-16	9	3	-3
CC(=O)N1[C@H](C)C=C[C@]1(Cc1ccccc1)C(=O)NCc1cc(F)cc(C(F)(F)F)c1	-20	-21	-0.9	-3	1.4	-3.5	5	-1	1	-5
O=C(NC1CCCCC1)C1CCN(C(=O)c2ccc(Cl)cc2)CC1	10	10	3.9	6	0.3	2.2	-10	-2	49	-4
COC(=O)c1sccc1NC(=O)Nc1ccccc1OC	-6	2	-2.2	0	-0.8	-3.5	-4	-2	17	6
O=C(COC(=O)c1n[nH]c2ccccc12)NC(=O)NC1CCCC1	·	·	·	·	0.0	5.9	·	-7	·	-4
COc1ccccc1NS(=O)(=O)c1ccc(O)c(C(=O)OCC(=O)N2c3ccccc3CC2C)c1 (stereo not drawn)	-6	6	-0.9	6	-0.3	-0.5	8	-119	20	-6
Cc1cc(N2CCN(Cc3nc(-c4ccc(Cl)cc4)oc3C)CC2)cc(C)n1	1	-4	-2.7	8	-1.0	0.3	19	31	-93	23

Screening results: PubChem, several laboratories
